# Bioassay records deposited in PubChem BioAssay by several laboratories.
# FPRL1 ligand = binds the human formylpeptide receptor-like-1 FPRL1; P25090; FPRL1-expressing cells, fluorescent ligand binding inhibition, flow cytometry; inhibition, %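 (tested at 6.7 µM)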; 24,000 compounds, 0.3% hits; AID 441;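 note: 0% = buffer alone and 100% = receptor blocker peptide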
# Target sequence (P25090 whole entry, looked up): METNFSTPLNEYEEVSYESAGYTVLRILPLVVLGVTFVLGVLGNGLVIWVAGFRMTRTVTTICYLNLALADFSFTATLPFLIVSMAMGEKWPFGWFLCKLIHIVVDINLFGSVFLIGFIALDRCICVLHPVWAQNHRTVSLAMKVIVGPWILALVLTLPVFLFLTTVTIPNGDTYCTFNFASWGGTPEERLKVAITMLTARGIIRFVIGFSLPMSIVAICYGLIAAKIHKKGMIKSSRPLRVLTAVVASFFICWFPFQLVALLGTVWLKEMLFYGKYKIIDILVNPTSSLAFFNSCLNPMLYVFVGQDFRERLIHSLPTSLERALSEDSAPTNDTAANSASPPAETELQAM
# FPR binder = ligands of human FPR, also counter-screen for FPRL1 ligands. P21462. FPR-expressing cells, fluorescent ligand binding, flow cytometry. inhibition, %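 (tested at 6.7 µM)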. AID 440. 24,000 compounds, 0.74% hits;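 note: 0% = buffer wells and 100% = receptor blocker peptide wells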
# Target sequence (P21462 whole entry, looked up): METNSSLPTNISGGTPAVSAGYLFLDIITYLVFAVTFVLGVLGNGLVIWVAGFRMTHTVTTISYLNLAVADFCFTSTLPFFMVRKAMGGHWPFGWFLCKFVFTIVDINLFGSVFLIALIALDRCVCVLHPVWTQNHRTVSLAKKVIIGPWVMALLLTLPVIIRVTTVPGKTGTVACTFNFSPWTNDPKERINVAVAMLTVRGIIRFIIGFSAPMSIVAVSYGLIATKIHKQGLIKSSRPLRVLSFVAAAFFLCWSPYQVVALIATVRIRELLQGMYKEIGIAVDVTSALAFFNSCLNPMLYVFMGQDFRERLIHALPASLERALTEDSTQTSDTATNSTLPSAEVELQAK
# VCAM-1 imaging = suppression of endothelial VCAM-1 upregulation – imaging, high-content imaging, pooled HUVEC, TNFa stimulus (AID 456). HUVEC TNFa-induced VCAM-1 surface expression, immunofluorescence imaging; numbers were filed only for top-ranked candidate wells. inhibition, % at 5 µM; hits with a dose series show IC50 in µM. 10,000 compounds, 0.2% hits;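 active = top tenth filtered wells with inhibition above zero that passed visual or statistical confirmation; inactive = the rest, including hits rejected on review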;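 note: 0% = stimulated vehicle wells and 100% = unstimulated cells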
# VCAM-1 up imaging = boosters of cytokine-driven VCAM-1 levels – imaging, high-content imaging, pooled HUVEC, TNFa stimulus (AID 457) | Pooled HUVEC, TNFa-induced VCAM-1 immunofluorescence imaging; hits of this screen are not shown here | calls only | 10,000 compounds, 0.2% hits;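 active = a top-ranked rise in VCAM-1 staining upheld on image or statistical review; inactive = the rest, including candidates rejected on review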;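 note: compounds tested at 5 µM in the well; cells exposed to compound for 24 hours before fixing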
# VCAM-1 inhibition = inhibitors of TNFa-induced VCAM-1 surface display, cell-based, plate reader, pooled HUVEC, TNFa stimulus (AID 454); inhibition, % at 5 µM; 10,000 compounds, 0.2% hits; HUVEC TNFa-induced VCAM-1 surface immunofluorescence, plate reader; numbers were filed only for top-ranked candidate wells;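 active = compound among top-ranked inhibitors of TNF-induced VCAM-1 adhesion protein staining, with the hit upheld by image or statistical review; inactive = the rest, including hits rejected on review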;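 note: 0% = TNFa with vehicle and 100% = cells without TNFa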
# * hit, by the source's call; i = inactive; . = not tested or not shown.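 Rule for the calls, unless noted: active = mean above 30%; inconclusive = self-fluorescent; inactive = the rest.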 Only part of the results is shown; rates above refer to the full screens.
# Preview (two entries):
SMILES,FPRL1 ligand,FPR binder,VCAM-1 imaging,VCAM-1 up imaging,VCAM-1 inhibition
Cc1cc2cc(CCNC(=O)C(C)C)c(=O)[nH]c2cc1C,-1,2,.,.,.
COc1ccc(CN(Cc2nc3ccccc3c(=O)[nH]2)C(=O)NC2CCCCC2)cc1,-6,0,i,i,i

# The whole of this part, from the start:
SMILES,FPRL1 ligand,FPR binder,VCAM-1 imaging,VCAM-1 up imaging,VCAM-1 inhibition
Cc1cc2cc(CCNC(=O)C(C)C)c(=O)[nH]c2cc1C,-1,2,.,.,.
COc1ccc(CN(Cc2nc3ccccc3c(=O)[nH]2)C(=O)NC2CCCCC2)cc1,-6,0,i,i,i
O=C(c1cc2c(=O)oc3ccccc3c2s1)N1CCN(c2ncccn2)CC1,-1,0,.,.,.
CCn1c(=O)cc(SCC(=O)N2CCN(c3ccccc3OC)CC2)c2ccccc21,0,-4,.,.,.
Cc1ccc(C(=O)NC2CCCCCC2)cc1N1CCCC1=O,-15,-10,.,.,.
NS(=O)(=O)c1ccc(NC(=O)N[C@@H](Cc2ccccc2)C(=O)O)cc1,1,-1,i,i,i
COc1ccc2[nH]c(=O)c(CN(CC3CCCO3)C(=O)Nc3ccc(F)cc3)cc2c1 (configuration not stated),11,4,i,i,i
O=C(Cn1nc(-c2ccccc2)ccc1=O)NCc1ccc2c(c1)OCO2,0,4,.,.,.
CCOc1ccc(-n2ccnc2SCC(=O)Nc2nnc(C)s2)cc1,8,4,.,.,.
CCN(CC)S(=O)(=O)c1ccc(NC2c3ccccc3C(=O)N2CCN2CCOCC2)cc1 (configuration not stated),0,-5,i,i,i
CCOc1ccc(OCC)c(NC(=O)C(NS(=O)(=O)c2ccc3c(c2)oc(=O)n3C)C(C)C)c1 (configuration not stated),-2,3,.,.,.
Cc1cc(C)c2c(n1)nn1c(N3CCN(c4ccccc4C)CC3)cc(C)nc21,4,4,i,i,i
CCOc1ccc(C2CC(c3ccc(F)cc3)n3ncnc3N2)cc1 (configuration not stated),13,18,.,.,.
Cc1nn(CC(O)Cn2c3c(c4ccccc42)CCN(C)C3=O)c(C)c1Br (configuration not stated),2,5,i,i,i
CCCCCOC(=O)c1[nH]c2c(c1C)C(=O)CC(c1ccco1)C2 (configuration not stated),12,6,.,.,.
O=C(CSc1nnc(Cc2ccccc2)n1-c1cccc(Cl)c1)N1CCOCC1,-1,-8,i,i,i
CCN1C(=O)C(C(=O)Nc2ccc(OC)cc2)C2CC1(C)Oc1ccccc12 (configuration not stated),9,14,i,i,i
CCOC(=O)CN1CC23C=CC(O2)C(C(=O)Nc2cc(OC)ccc2OC)C3C1=O (configuration not stated),-7,-8,.,.,.
COc1cccc(OC)c1OCCCCCc1c(C)n[nH]c1C,-3,-2,.,.,.
COc1ccc(C2C(C(=O)N3CCCC3)CC(=O)N2c2ccc(OC)cc2)cc1 (configuration not stated),-1,3,.,.,.
O=C(OCC(=O)c1c[nH]c2ccccc12)C1=COCCO1,2,-3,i,i,i
CCC(=O)N1CCc2cc(Br)cc(S(=O)(=O)N3CCN(C(=O)c4ccco4)CC3)c21,1,4,.,.,.
COc1ccc(S(=O)(=O)NCCCN2CCOCC2)c2ccccc12,-3,7,i,i,i
COc1nc(/C(N)=N/O)nc(N2CCCCC2)n1,3,0,.,.,.
CCOC(=O)c1sc2nc(C)cc(C)c2c1N,-5,-2,i,i,i
CCCCCCc1ccc(-c2ncc(N)cn2)cc1,7,6,i,i,i
Cc1ccc(Cn2nnc3c(=O)n(CC(=O)NCc4ccco4)cnc32)cc1,0,-1,.,.,.
O=C1c2oc3ccccc3c(=O)c2C(c2ccccn2)N1Cc1ccccc1 (configuration not stated),-9,-5,i,i,i
COc1cccc(-c2nc(CS(=O)(=O)CC(=O)NCc3ccccc3OC)c(C)o2)c1,-6,-1,.,.,.
CC(=O)NCc1nc2ccccc2n1Cc1ccccc1F,-3,-2,.,.,.
O=C(O)CNS(=O)(=O)c1ccc(Br)s1,7,-2,.,.,.
CC1CCN(c2c(NCc3ccc(C(=O)N4c5ccccc5CC4C)cc3)c(=O)c2=O)CC1 (configuration not stated),-3,-1,i,i,i
CC(C)CC1NC(=O)N(CC(=O)N2CCN(S(=O)(=O)c3ccc(Cl)cc3)CC2)C1=O (configuration not stated),12,-4,i,i,i
O=C(O)CCn1c(=O)c2ccccc2c2ccccc2c1=O,4,-5,i,i,i
Cc1oc(-c2ccccc2F)nc1CSCC(=O)NCc1ccc2c(c1)OCO2,-1,-8,.,.,.
CN(C)CCNC(=O)Cn1nc(-c2ccc(Cl)cc2)ccc1=O,-4,-2,.,.,.
NC(=O)C1(N2CCCCC2)CCN(Cc2ccccc2Cl)CC1,-2,1,i,i,i
CCOC(=O)CNC(=O)Cn1cnc2c(nnn2-c2ccc(C)cc2)c1=O,-5,-6,.,.,.
CCCCNC(=O)CC(=O)Nc1ccccc1C(=O)O,-1,8,.,.,.
CC(=O)N1CCCc2cc(S(=O)(=O)NCCC3=CCCCC3)ccc21,-2,-2,.,.,.
Cn1c(=O)cc(SCC(=O)N2CCN(c3ccccn3)CC2)c2ccccc21,12,6,.,.,.
CCc1ccc(NC(=O)CSc2nnc(CNC(=O)c3c(F)cccc3Cl)o2)cc1,1,-3,.,.,.
Cc1ccc(-c2nc(CS(=O)CC(=O)NC3CCC(C)CC3)c(C)o2)cc1 (configuration not stated),-8,2,.,.,.
CC(=O)OCC1OC(n2ccc(=O)[nH]c2=O)C(O)C1O (configuration not stated),-5,-3,.,.,.
CN(Cc1ccccc1)C(=O)c1cnc2n(c1=O)CCS2,-1,0,.,.,.
COc1ccc(NC(=O)c2ocnc2C)cc1OC,8,0,.,.,.
COc1ccc(Cc2nc(-c3cccs3)no2)cc1OC,1,9,.,.,.
COc1ccc(OC)c(S(=O)(=O)NCCO)c1,5,0,i,i,i

# 2 of these compounds in another layout.
# The line under a structure holds: FPRL1 ligand	FPR binder	VCAM-1 imaging	VCAM-1 up imaging	VCAM-1 inhibition
- Cc1ccc(C(=O)NC2CCCCCC2)cc1N1CCCC1=O
→ -15	-10	.	.	.
- CCOC(=O)c1sc2nc(C)cc(C)c2c1N
→ -5	-2	i	i	i

# The list continues.
SMILES,FPRL1 ligand,FPR binder,VCAM-1 imaging,VCAM-1 up imaging,VCAM-1 inhibition
COCCCNS(=O)(=O)c1ccc2c(c1)CCN2C(C)=O,0,2,i,i,i
O=C(CSc1nc2c(c(=O)[nH]1)CCCC2)Nc1ccc(Cl)cc1F,-1,16,.,.,.
COC(=O)CSc1nnc(CNC(=O)c2cccs2)n1-c1cc(OC)ccc1OC,8,0,.,.,.
Cc1c(/C(O)=C2/C(=O)C(=O)N(CCN3CCOCC3)C2c2cccnc2)cnn1-c1ccccc1 (configuration not stated),4,10,i,i,i
Cc1ccc2c(c1C)NC(=O)C2(O)CC(=O)c1ccc2c(c1)OCO2 (configuration not stated),-2,0,i,i,i
O=C(c1cccc(F)c1)N1CCN(Cc2c[nH]c3ccccc23)CC1,-4,-1,.,.,.
COc1ccc(C(=O)COC(=O)c2ccc(OC)c(OC)c2)cc1OC,-2,-5,.,.,.
O=C(O)CCN=C1CCCc2ccccc2N1,6,0,.,.,.
CC1=C(C(=O)N2CCCCC2)C(c2cccs2)C2=C(CCCC2=O)N1 (configuration not stated),5,-5,i,i,i
O=C(C1CCN(S(=O)(=O)N2CCC3(CC2)OCCO3)CC1)N1CCN(Cc2ccccc2)CC1,2,-1,.,.,.
CCOC(=O)c1ccc(NC(=O)C2=C(C)Nc3nc(CCCO)nn3C2c2cccc(C)c2)cc1 (configuration not stated),2,-8,.,.,.
CCOc1ccc(NC(=O)N(CCC(C)C)C(C)c2ccco2)cc1 (configuration not stated),-1,-3,.,.,.
COc1ccc(CNc2nc3nc(C)cc(C)n3n2)cc1OC,-2,1,i,i,i
CCn1nc(C(=O)OCC(=O)c2cc(C)n(Cc3cccs3)c2C)c2ccccc2c1=O,3,0,i,i,i
CSc1nnc(-c2ccccc2)n1C,-2,0,i,i,i
O=C(COC(=O)COc1ccc(Nc2ccccc2)cc1)NCc1ccco1,0,2,.,.,.
CCOc1ccc(C2Oc3nc(SC)nnc3-c3ccccc3N2C(C)=O)cc1OC (configuration not stated),-1,-5,.,.,.
O=S(=O)(c1cccc2nsnc12)N1CCCC1,-1,-6,.,.,.
CC(=O)Nc1nc(-c2ccc(Cl)cc2)nc(C)c1C(C)=O,1,-6,i,i,i
C=CCN(CC=C)S(=O)(=O)c1ncn[nH]1,-8,-8,.,.,.
CCCC(C)C1C(C#N)=C(N)Oc2cc(C)oc(=O)c21 (configuration not stated),-5,12,i,i,i
C=CCNC(=O)C1CCN(S(=O)(=O)c2ccccc2)CC1,0,1,.,.,.
CC1CCCCC1NC(=O)C1CCN(S(=O)(=O)N2CCOCC2)CC1 (configuration not stated),-1,-1,.,.,.
Cc1ccc(C)c(-n2c(Cc3cc(=O)[nH]c(=O)[nH]3)nnc2SCC(=O)NCC2CCCO2)c1 (configuration not stated),-3,-5,.,.,.

# Full records, quoted from the list. Screens in order: FPRL1 ligand, FPR binder, VCAM-1 imaging, VCAM-1 up imaging, VCAM-1 inhibition
# Entry for `Cc1ccc(C)c(-n2c(Cc3cc(=O)[nH]c(=O)[nH]3)nnc2SCC(=O)NCC2CCCO2)c1` (configuration not stated) → -3, -5, ., ., .
# Entry for `O=S(=O)(c1cccc2nsnc12)N1CCCC1` → -1, -6, ., ., .
# Entry for `C=CCN(CC=C)S(=O)(=O)c1ncn[nH]1` → -8, -8, ., ., .
# Entry for `COc1ccc(CNc2nc3nc(C)cc(C)n3n2)cc1OC` → -2, 1, i, i, i
# Entry for `CC1CCCCC1NC(=O)C1CCN(S(=O)(=O)N2CCOCC2)CC1` (configuration not stated) → -1, -1, ., ., .

# Continuation.
SMILES,FPRL1 ligand,FPR binder,VCAM-1 imaging,VCAM-1 up imaging,VCAM-1 inhibition
CN(C)CCC=C1c2ccccc2CCc2ccccc21,0,-8,i,i,i
CCCS(=O)(=O)NCCc1cc2ccc(C)cc2[nH]c1=O,1,-1,.,.,.
Brc1c(NC2=NCCN2)ccc2nccnc12,1,16,i,i,i
CCOC(=O)c1cnn(CCOC(=O)C(C)(C)C)c1NC(=O)C(C)(C)C,9,-4,.,.,.
Cc1c(C(=O)N2CC(C)OC(C)C2)sc2nc(-c3ccc(F)cc3)cn12 (configuration not stated),2,0,.,.,.
CCOC(=O)N1CCN(C(=O)c2cc(C)c3c(C)nn(-c4ccccc4)c3n2)CC1,-2,0,.,.,.
COc1ccc(Br)cc1CNC(=O)C1CCCN(S(C)(=O)=O)C1 (configuration not stated),1,3,i,i,i
O=C(CCS(=O)(=O)c1ccc(Br)s1)NCc1ccc2c(c1)OCO2,0,12,.,.,.
COC(=O)c1cc(Br)c(=O)n(CCN2CCOCC2)c1,-6,2,i,i,i
CCn1cc(C(=O)N2CCCc3ccccc32)c2cc(OC)c(OC)cc2c1=O,5,10,.,.,.
O=C(Cn1ncc2c(=O)oc3ccccc3c21)NC1CC1,1,2,.,.,.
CC1CCCC(C)N1C(=O)CSc1nnc(-c2cccs2)o1 (configuration not stated),5,2,i,i,i
Cc1noc(/C=C/N(C)C)c1S(=O)(=O)N(C)CC(=O)NC1CCCCC1,-4,-1,.,.,.
COc1cccc(NC(=O)CNS(=O)(=O)c2ccc3nc(C)sc3c2)c1,-2,-4,.,.,.
CCOC(=O)c1ccc(-c2nnc(-c3ccc(Cl)cc3Cl)o2)cc1,1,-3,.,.,.
COc1ccc(C(=O)Nc2cc3c(cc2C#N)OCO3)cc1S(=O)(=O)NCc1ccco1,4,8,.,.,.
Cc1ccc(F)cc1NC(=O)c1c(-c2ccccc2)noc1C,-2,-11,.,.,.
COc1ccc(-n2nnc3c(SCC(=O)NCC4CCCO4)ncnc32)cc1 (configuration not stated),3,-1,.,.,.
Cc1ccc(-n2c(=O)[nH]cc(C(=O)N3CCc4ccccc43)c2=O)cc1,-3,10,.,.,.
CCOC(=O)c1cccc(N2C(N)=NC(N)=NC2(C)C)c1,1,5,.,.,.
CCC(C(=O)OC)n1cnc2c(nnn2-c2ccc(OC)cc2)c1=O (configuration not stated),-7,0,.,.,.
CCOC(=O)c1cc(-c2ccc(F)cc2)n(CC(=O)N2CCCC2)c1C,-3,-2,.,.,.
Nc1ccc2cn[nH]c2c1,0,-5,i,i,i
CCOC(=O)Cn1c(=O)c(-c2ccccc2N)nc2ccccc21,-8,1,i,i,i
C1=Nc2c(NCc3ccccc3)ncnc2Oc2ccccc21,-1,-4,i,i,i
CCOc1ccc(-n2c(SCC(=O)NCc3ccco3)nc3c(c2=O)SCC3)cc1,-6,-4,.,.,.
C=CCOc1cccc(C2/C(=C(/O)c3ccccc3)C(=O)C(=O)N2CCN2CCOCC2)c1 (configuration not stated),-5,14,.,.,.
